# Source: PubChem
# UCH37 DUB inh – human UCH37 deubiquitinating enzyme inhibition. Q9Y5K5. purified proteasome/UCH37, Ub-AMC cleavage fluorescence. inhibition, % (test concentration not listed). 0.33% of 330,000 active. AID 588478;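 active = mean of two replicates above 20%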;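 also: 0% = compound-free wells with enzyme and 100% = wells lacking proteasome; stock transfer was 100 nL into about 20 µL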
# Target sequence (Q9Y5K5 whole entry, looked up): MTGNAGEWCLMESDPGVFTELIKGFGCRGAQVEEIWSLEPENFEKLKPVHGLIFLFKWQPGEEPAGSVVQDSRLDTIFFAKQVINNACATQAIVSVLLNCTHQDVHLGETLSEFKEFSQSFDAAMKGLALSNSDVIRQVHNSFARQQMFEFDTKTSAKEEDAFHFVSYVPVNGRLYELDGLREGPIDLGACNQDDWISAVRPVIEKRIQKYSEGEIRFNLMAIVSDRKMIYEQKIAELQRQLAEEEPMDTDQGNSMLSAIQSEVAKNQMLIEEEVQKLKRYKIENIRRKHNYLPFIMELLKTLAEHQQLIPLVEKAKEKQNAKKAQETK
#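 System: Proteasome-associated human UCH37 deubiquitinase; Input: 0.15 nM proteasome in added enzyme buffer; Also added: Ub-AMC substrate from 1 µM stock; Incubation: 30 min compound-proteasome preincubation then 25 min substrate reaction, room temperature; Detection: fluorescence, ex 355 nm, em 460 nm; Read-out: % inhibition of Ub-AMC cleavage fluorescence; Benchmarks: no-proteasome and no-compound wells.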
# Beta2AR agonist – agonists of human beta-2 adrenergic receptor inducing internalization. response, % (no concentration beside the values). 0.43% of 340,000 active. Am2.2-beta2AR cells, FAP receptor internalization, flow cytometry; reference of the scale not given here;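 active = response above a set limit, near 3 SD of response in nonfluorescent compounds, cut at about 42% in these data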;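 also: stock transfer was 100 nL into about 11 µL; a reference agonist was the positive control; negative values mostly stem from fluorescent compounds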
# FGF22 binding – shifts melting point of recombinant human FGF22; Q9HCT0; recombinant FGF22 thermal shift, SYPRO orange fluorescence; percent of sucrose octasulfate shift, DMSO zero; calls only at 9.99 µM; 1.5% of 340,000 active; AID 651658;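 active = melting point raised past a set limit in the mean and every replicate; three in four hits are not shown here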
# Target sequence (Q9HCT0 whole entry, looked up): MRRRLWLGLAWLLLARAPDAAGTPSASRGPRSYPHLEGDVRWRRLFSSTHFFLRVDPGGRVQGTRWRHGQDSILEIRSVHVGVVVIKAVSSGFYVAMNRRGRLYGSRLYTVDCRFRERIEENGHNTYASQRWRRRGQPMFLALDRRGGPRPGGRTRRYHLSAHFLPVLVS
# HNF4A DNA FP – change in binding of human HNF4 alpha to DNA. HNF4a-FITC DNA binding, fluorescence polarization, 1 h. activity change, % at 10 µM. 0.3% of 360,000 active. AID 1224865; in the data active = activity change above about 30%, passing the limit was not always enough;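 also: controls were the assay level and a saturating level of protein; the project sought stronger binding though the title names inhibitors; some compounds called inactive have numbers as strong as hits; positive values seem to mean higher polarization but the record does not say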
# Target sequence (P41235 whole entry, looked up): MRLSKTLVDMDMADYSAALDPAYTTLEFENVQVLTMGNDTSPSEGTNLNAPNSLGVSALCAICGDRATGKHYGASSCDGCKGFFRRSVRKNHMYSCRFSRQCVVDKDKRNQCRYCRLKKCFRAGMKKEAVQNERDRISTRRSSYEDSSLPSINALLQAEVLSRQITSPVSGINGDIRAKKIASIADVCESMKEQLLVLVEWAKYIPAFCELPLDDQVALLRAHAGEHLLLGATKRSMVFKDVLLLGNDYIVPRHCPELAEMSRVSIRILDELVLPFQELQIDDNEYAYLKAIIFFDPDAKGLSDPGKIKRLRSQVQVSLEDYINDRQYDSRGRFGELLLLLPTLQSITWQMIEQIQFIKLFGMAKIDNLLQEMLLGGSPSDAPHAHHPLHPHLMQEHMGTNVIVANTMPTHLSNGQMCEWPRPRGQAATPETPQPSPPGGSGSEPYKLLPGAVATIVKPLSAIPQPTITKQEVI
# ALR H2O2 inh – inhibitors of human sulfhydryl oxidase ALR | purified ALR, DTT oxidation, H2O2 HRP-luminol luminescence | AID 485317 | 3.8% of 290,000 active | inhibition, % (concentration not given with the values) | P55789;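 active = mean and each replicate at 75% or more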;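 also: stock transfer was 7.5 nL into about 7.5 µL; 0% = neutral wells and 100% = wells with inactivated enzyme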
# LANA-H2A inh – blocks KSHV LANA binding to histone H2A/H2B; Q9QR71; cell-free LANA-H2A/H2B peptide, fluorescence polarization; inhibition, % (test concentration not listed); 0.6% of 320,000 active; in the data active = inhibition mostly above about 10%, no sharp cut-off; inactive = mostly below about 6.7%;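 also: stock transfer was 7.5 nL into about 10 µL; 0% = median of vehicle wells and 100% = median of positive control wells; one replicate is shown; the record names a cut of 25% in any replicate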
# E coli growth – inhibitors of Escherichia coli growth; OD600, 23 h; hits give low values; OD600 absorbance (test concentration not listed); 0.21% of 330,000 active;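 active = OD600 absorbance below the run mean of sample wells minus 3.6 SD, in any replicate, cut at about 0.56 in these data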;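 also: stock transfer was 300 nL into about 60 µL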
# The depositor's hits bear a star; i = inactive; x = no result given. Only part of the results is shown; the hit share may differ from the screen's.
SMILES,UCH37 DUB inh,Beta2AR agonist,FGF22 binding,HNF4A DNA FP,ALR H2O2 inh,LANA-H2A inh,E coli growth
O=C(CSC1CS(=O)(=O)c2cc([N+](=O)[O-])ccc21)NNC(=O)c1ccc(Cl)cc1 (centres undefined),3.9,-13,i,-3.3,-8,1.2,0.7
COC(=O)c1ccc(COC(=O)c2cc3ccccc3oc2=O)cc1,-2.8,-6,i,-2.5,1,1.7,0.67
Cc1cccc(OCCC(=O)Nc2ccccc2C(N)=O)c1,1.8,3,i,1.8,1,0.5,0.69
O=C(CCCN1C(=O)C2C3C=CC(C3)C2C1=O)N1CCN(c2ccccc2)CC1 (centres undefined),1.8,-2,x,2.2,66,5.2,0.75
CCOC(=O)N1CCN(S(=O)(=O)c2ccc(OCC(=O)OC)c(Cl)c2)CC1,0.5,8,i,-2.3,-3,-3.3,0.67
CC12CCC(C(=O)N(CC(=O)O)C1=O)C2(C)C (centres undefined),0.4,1,i,-1.8,-6,3.3,0.7
NC(=O)c1ncc(C(F)(F)F)cc1Oc1cccc(F)c1,3.9,-3,x,1.4,2,-4.2,0.73
CCc1ccccc1NC(=O)COC(=O)c1cccs1,0.1,-3,i,1.1,x,-1.3,0.66
CC(C)Cc1nnc(NC(=O)CCC(=O)NC2CCCc3ccccc32)s1 (centres undefined),4.9,7,x,5.1,-48,-9.6,0.71
CC/C(=N\NC(=O)CSCc1ccccc1Cl)c1ccc2c(c1)OCCO2,x,-1,x,-3.0,-8,0.8,x
COc1ccc(S(=O)(=O)CCC(=O)N2CCN(c3ccc([N+](=O)[O-])cc3)CC2)cc1,5.8,2,i,0.0,3,4.0,0.69
O=C(NCCc1ccc(Cl)cc1)C1CCC(CNc2nc(=S)[nH]c3ccccc23)CC1 (centres undefined),2.8,0,i,1.7,-3,0.0,0.69
COCCC(=O)Nc1ccc2c(c1)CN(C(=O)CSC)CC2,-1.0,7,i,1.6,-9,1.6,0.68
CC(=O)c1ccc(N2CCN(CC(=O)N(C3CC3)C3CCS(=O)(=O)C3)CC2)c(F)c1 (centres undefined),2.9,0,i,-0.8,x,-0.6,0.71
O=c1[nH]c(=S)[nH]cc1Oc1ccc(Cl)cc1Cl,2.9,-14,i,-2.7,x,x,0.56
CCC(C)NC(=O)CN(c1cc(Cl)ccc1OC)S(C)(=O)=O (centres undefined),1.3,-11,x,-1.8,4,-3.7,0.68
CC1(C(=O)O)CCC(C(N)=O)C1(C)C (centres undefined),6.6,4,i,-4.6,0,2.7,0.66
NC(=S)N=Nc1c(O)n(Cc2ccc(Br)cc2)c2ccccc12,x,-7,x,-4.5,-14,1.4,x
CCN1CCN(c2ccc(S(=O)(=O)N3CCCCC3)cc2NC(=O)/C=C/c2ccc(F)cc2)CC1,8.1,24,i,-0.4,0,-1.1,0.64
COC(=O)NC1(C(=O)O)CCCC1,2.2,4,i,1.4,-5,2.0,0.68
CCC(Sc1nc2cc3c(cc2c(=O)n1Cc1ccco1)OCO3)C(=O)NCCOC (centres undefined),3.9,6,x,-0.6,4,2.4,0.7
CC(C)C(OC(=O)CCC(=O)Nc1nccs1)C(=O)NC1CCCCC1 (centres undefined),5.1,0,i,-0.6,21,-1.7,0.66
CCc1ccc2oc(C(=O)NCc3ccncc3)c(C)c2c1,0.8,-3,x,-3.7,-10,0.1,0.72
COC(=O)[C@H](Cc1ccc(O)cc1)NC(=O)Cn1cnc2c(OCc3ccccc3)ncnc21,0.6,-5,i,-1.9,x,x,0.69
COCc1cc(=O)n2[nH]c(N)nc2n1,-1.3,3,i,-4.3,1,-7.9,0.72
Cc1csc2ncc(C(=O)Nc3ccccc3Cl)c(=O)n12,-37,1,i,15,-10,2.0,0.71
COc1ccc(CSCCNC(=S)Nc2ccccc2)cc1Cl,5.8,4,i,0.5,-3,-4.0,0.65
O=C(c1ccc2c(c1)OCO2)N1CCN(c2ncccn2)CC1,-1.8,1,i,4.1,6,-4.0,0.64
CCOC(=O)c1c(NC(=O)C2C3C=CC(C3)C2C(=O)O)sc2c1CCCC2 (centres undefined),-4.5,13,i,-6.8,20,4.0,0.76
O=C(Cc1n[nH]c(=O)c2ccccc12)NCc1ccccn1,0.0,0,x,0.7,0,-5.3,0.67
CCOC(=O)c1c(C)[nH]c(C)c1S(=O)(=O)N(C)CC(=O)Nc1cccc(F)c1,1.5,4,i,-0.3,-3,2.6,0.69
O=[N+]([O-])c1ccccc1S(=O)(=O)NC1CCCCCCC1,x,1,i,-3.8,-8,1.1,x
N#Cc1ccccc1NC(=O)COC(=O)CN1C(=O)C2CCCCC2C1=O (centres undefined),2.9,-9,i,-1.4,-5,-1.6,0.72
COc1ccc(N2CCN(C(=O)CNS(=O)(=O)c3ccc(C)cc3)CC2)cc1,4.8,1,i,-2.3,57,8.8,0.67
COCCNC(=S)N1CCN(C(=O)C(=O)Nc2ccc(C(=O)OC)cc2)CC1,6.7,5,x,-6.9,2,0.9,0.7
O=C1C=C(c2ccc(C(=O)O)cc2)C[C@@H](c2ccc3c(c2)OCO3)C1,2.5,13,i,19,1,7.7,x
O=c1cc(-c2ccccc2)[nH]c2cc(F)ccc12,0.7,26,i,-4.1,2,-0.2,0.63
CCNC(=S)NNC(=O)c1ccc(=O)n(Cc2ccccc2)c1,1.3,-3,i,-2.5,68,-9.9,0.64
CC(C)CN1CCC(=O)N([C@H](CN=[N+]=[N-])Cc2ccccc2)CC1,4.5,-5,i,-0.6,-12,-1.5,x
NC(=O)C1(N2CCCCC2)CCN(C(=O)c2cccs2)CC1,3.0,10,i,1.2,-5,-1.0,0.79
Cc1ccc2c3c([nH]c2c1C)-c1nonc1CC3,-17,10,x,-2.1,-3,1.6,0.68
COc1ccccc1OCC(=O)Nc1c2c(nn1-c1ccccc1)CS(=O)(=O)C2,0.0,0,i,-0.9,-13,-0.3,0.69
COCCn1c(SCC(=O)Nc2ccc(N3CCOCC3)cc2)nc2ccccc21,5.3,-15,x,1.4,36,6.5,0.71
O=C1N(Cc2cccnc2)C[C@@H]2C[C@@H](c3ccc4nsnc4c3)N3CCC[C@@]123,2.8,-6,i,-2.4,-14,-1.6,0.73
COc1ccc([C@H]2CC(=O)C=C(c3ccc4c(c3)sc3ccccc34)C2)cc1,2.2,-12,i,2.2,-2,-4.3,x
COc1ccc(C(=O)n2c(SC)nc3cc4c(cc32)OCCO4)cc1,-2.2,-1,x,0.5,12,-3.4,0.7
O=c1c2c(C(F)(F)F)cc(C(F)(F)F)nc2[nH]n1-c1ccccc1,8.2,4,i,-2.0,26,-1.1,0.61
Cc1ccc(CNc2ccc([N+](=O)[O-])cc2C(N)=O)cc1,2.3,-3,i,-1.1,-2,2.0,0.7
C=CCOc1cccc(/C=N/NC(=O)C(=O)NCc2ccco2)c1,x,-41,x,-1.7,x,-6.6,x
COc1cccc(Oc2cn[nH]c2-c2ccc(O)cc2O)c1,0.6,-4,x,-2.5,80*,0.2,0.69
Cc1csc(NC(=O)CNC(=O)OCc2ccccc2)n1,6.0,-7,x,0.8,-7,-2.7,0.65
COc1ccnc(CSC(N)=Nc2ccccc2OC)c1,8.1,-2,x,1.7,27,-6.3,0.69
CCCOC(=S)Nc1ccccc1,-1.8,5,x,-2.2,-8,-2.4,0.67
O=C1CC[C@@H]2C[C@@]3(C[C@@H]4CCN1[C@H]24)Nc1cc([N+](=O)[O-])ccc1NC3=NCc1ccccc1,x,10,i,-2.7,x,x,x
Cc1ccc(C(O)(CNCc2ccccc2)c2ccccc2)cc1 (centres undefined),1.9,5,i,-0.7,-28,-6.7,0.66
Cc1ccc(S(=O)(=O)NC(C)(C)CN2CCc3ccccc3C2)cc1,0.1,1,i,-6.0,0,0.6,0.66
Cc1ccc(CNS(=O)(=O)c2cc(F)ccc2CN2C(=O)c3cccnc3C2=O)o1,5.2,0,i,-0.5,7,-5.2,0.7
CCOC(=O)c1cc(-c2ccc(N3CCOCC3)cc2)nn1-c1ccc(F)cc1F,-3.3,-6,x,0.4,-34,7.1,0.7
CCOC(=O)c1cc[nH]c1CC(=O)NC,x,-5,i,-1.4,-21,-1.3,x
O=C(NCc1ccco1)c1cnccn1,1.9,-9,x,0.4,10,2.2,0.75

# An excerpt from further up:
SMILES,UCH37 DUB inh,Beta2AR agonist,FGF22 binding,HNF4A DNA FP,ALR H2O2 inh,LANA-H2A inh,E coli growth
Cc1ccc2c3c([nH]c2c1C)-c1nonc1CC3,-17,10,x,-2.1,-3,1.6,0.68
COc1ccccc1OCC(=O)Nc1c2c(nn1-c1ccccc1)CS(=O)(=O)C2,0.0,0,i,-0.9,-13,-0.3,0.69

# Going on with the list.
SMILES,UCH37 DUB inh,Beta2AR agonist,FGF22 binding,HNF4A DNA FP,ALR H2O2 inh,LANA-H2A inh,E coli growth
COc1ccc(NC(=O)Cn2c3ccccc3c3nc4n(c(=O)c32)CCS4)cc1OC,-33,7,i,-1.4,x,1.8,0.73
CCn1c(Cc2ccccc2)nnc1SCC(=O)Nc1nc2ccccc2s1,1.2,-13,x,-0.4,-7,1.2,0.83
Cc1ccc(CNS(=O)(=O)c2ccc(C(C)(C)C)cc2)n1C,5.5,1,x,2.6,-8,0.1,0.67
COc1ccc([N+](=O)[O-])cc1NC(=O)C(C)OC(=O)C1CCCC1 (centres undefined),4.2,-5,i,-1.6,-12,-1.0,0.66
CCOC(=O)c1ccc(NC(=O)CSc2nc3cccnc3n2C)cc1,3.0,-7,x,-0.4,4,5.8,0.7
CCOCCCN(C)C1CCN(C(=O)c2oc3ccccc3c2NC(=O)COc2cccc(C)c2)CC1,2.2,2,i,4.2,-3,4.7,0.65
CN(Cc1cccc(F)c1)C(=O)CSc1nnc(C2CC2)n1C1CC1,2.6,-22,i,-3.0,x,x,0.67
Cc1cccc(CCNC(=O)C2CCN(S(=O)(=O)c3ccccc3)CC2)c1,2.5,0,i,-0.6,-19,4.5,0.74
COc1ccc(CNC(=O)CCCC(=O)n2nc(C)c3ccccc32)cc1,0.7,-9,i,1.1,-1,7.1,0.64
N#Cc1ccccc1OCC(=O)NC(N)=O,0.3,-5,x,-1.9,4,0.3,0.7
OCCOCCNc1ncnc2sc(-c3ccccc3)cc12,-45,4,x,3.0,-22,0.8,0.7
COc1cccc2c(N/N=C/c3ccc(O)c(O)c3)cc(C)nc12,x,6,i,2.1,99*,-4.7,x
COc1ccc([N+](=O)[O-])cc1C(=O)Nc1ccc(Cc2ccncc2)cc1,1.9,-3,i,3.5,-1,-6.6,0.67
COc1ccc(NC2CCCN(C(=O)c3cc4ncccn4n3)C2)cc1 (centres undefined),3.1,5,i,2.4,100*,0.4,0.68
COc1ccccc1CNC(=S)Nc1ccc(S(N)(=O)=O)cc1,3.3,4,x,1.3,2,4.0,0.71
O=C(Nc1ccc(F)cc1)c1ccc2snnc2c1,7.4,-9,i,-1.1,-5,-1.9,0.67

# Entries of single compounds, quoted from the list. Order of values: UCH37 DUB inh	Beta2AR agonist	FGF22 binding	HNF4A DNA FP	ALR H2O2 inh	LANA-H2A inh	E coli growth
# `CCOC(=O)N1CCN(S(=O)(=O)c2ccc(OCC(=O)OC)c(Cl)c2)CC1` in the list: 0.5	8	i	-2.3	-3	-3.3	0.67
# `O=C(Cc1n[nH]c(=O)c2ccccc12)NCc1ccccn1` in the list: 0.0	0	x	0.7	0	-5.3	0.67
# `CCn1c(Cc2ccccc2)nnc1SCC(=O)Nc1nc2ccccc2s1` in the list: 1.2	-13	x	-0.4	-7	1.2	0.83
# `O=[N+]([O-])c1ccccc1S(=O)(=O)NC1CCCCCCC1` in the list: x	1	i	-3.8	-8	1.1	x
# `CCCOC(=S)Nc1ccccc1` in the list: -1.8	5	x	-2.2	-8	-2.4	0.67
